# CHT block: inhibits the human high affinity choline transporter | Q9GZV3 | CHT-expressing cells, membrane potential dye, choline response; stronger effect = lower value | B-score at 10 µM | 310,000 tested, 0.86% active | AID 488975;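 active = B-score over 3 SD under the library average, and starting fluorescence ratio not unusually high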;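 also: choline stimulus applied at its EC90 after an EC20 pre-addition; B-score computed on integrated fluorescence ratio after choline addition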
# Target sequence (Q9GZV3 whole entry, looked up): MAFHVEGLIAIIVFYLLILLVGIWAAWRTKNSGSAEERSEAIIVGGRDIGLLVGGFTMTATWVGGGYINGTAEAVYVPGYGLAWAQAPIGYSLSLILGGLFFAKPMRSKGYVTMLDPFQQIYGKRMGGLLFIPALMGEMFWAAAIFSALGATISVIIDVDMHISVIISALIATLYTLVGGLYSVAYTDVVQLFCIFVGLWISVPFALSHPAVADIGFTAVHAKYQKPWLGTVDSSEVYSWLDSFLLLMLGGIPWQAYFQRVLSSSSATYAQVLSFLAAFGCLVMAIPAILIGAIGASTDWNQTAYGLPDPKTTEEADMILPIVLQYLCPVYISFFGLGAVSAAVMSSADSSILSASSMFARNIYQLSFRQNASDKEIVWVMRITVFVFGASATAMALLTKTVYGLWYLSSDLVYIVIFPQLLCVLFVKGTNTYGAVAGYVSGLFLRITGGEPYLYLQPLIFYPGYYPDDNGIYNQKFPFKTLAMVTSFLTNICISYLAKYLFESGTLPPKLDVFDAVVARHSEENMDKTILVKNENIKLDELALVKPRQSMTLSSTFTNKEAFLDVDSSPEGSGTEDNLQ
# Calls only; i = inactive.
SMILES,CHT block
Cc1nc2ccc(NC(=O)N3CCOCC3)cc2s1,i
Nc1nc(-c2cc3ccccc3o2)cs1,i
Clc1ccc(CSc2cc3c(nn2)-c2ccccc2CC3)cc1,i
COc1cccc(/C=N/Nc2nc3ccccc3n3cnnc23)c1,i
COc1ccc(NC(=S)NC(NC(=O)CCl)C(Cl)(Cl)Cl)c([N+](=O)[O-])c1 (stereo not given),i
CC(C)(C)c1ccc(CCC(CC(=O)O)CC(=O)O)cc1,i
FC(F)(F)c1cc(-c2ccccc2)nc(NC2CCCC2)n1,i
O=C(CN1C(=O)COc2ccccc21)N(Cc1ccccc1)Cc1ccccn1,i
O=C(C1CCC1)N1CCN(S(=O)(=O)c2ccc(F)cc2)CC1,i
Cc1ccc2[nH]cc(C(=O)NCc3cccs3)c(=O)c2c1,i
Cc1ccc(S(=O)(=O)N2CC=C(C(=O)NC3CC3)CC2)cc1,i
Cc1ccc(NC(=O)C2CCCN(S(=O)(=O)c3c(C)noc3C)C2)c(C)c1 (stereo not given),i
COC(=O)C1=CN(c2cccc(C(F)(F)F)c2)C=C(C(=O)OC)C1c1ccc(O)c(OC)c1,i
O=C(NCCc1ccc(F)cc1)C(=O)Nc1cc2c3c(c1)CC(=O)N3CCC2,i
CC1Cc2cc(S(=O)(=O)N3CCCCC3C)ccc2N1C(=O)C1CCC1 (stereo not given),i
S=C(Nc1ccccc1)N1CCN(c2ccccn2)CC1,i
COc1ccc(CNC(=O)C(=O)NCC2OCCN2C(=O)c2ccc(OC)cc2)cc1 (stereo not given),i
OCCN(Cc1ccccc1)C(=S)Nc1ccc(Cl)cc1Cl,i
CCCCC(=O)Nc1sc(C(=O)N(CC)CC)c(C)c1C(=O)OC,i
NC(=O)C(c1ccccc1)C1CCCCC1 (stereo not given),i
CC(C)OC(=O)NCCOC(=O)Nc1ccc(Cl)cc1,i
CN(Cc1n[nH]c(=S)n1C)S(=O)(=O)c1ccccc1,i
Cc1cccc(C(=O)NCC(=O)NC(C)c2ccc(-n3ccnc3)cc2)c1 (stereo not given),i
CNS(=O)(=O)c1cc(C(=O)NCc2ccco2)ccc1Cl,i
CCN(CC(=O)NCc1ccc(F)cc1)Cc1nc2ccccc2c(=O)[nH]1,i
C=C(C)Cn1c(CN(C)Cc2ccccc2)nc2c1c(=O)n(C)c(=O)n2C,i
COc1ccc(-c2nnc(SC)nc2-c2ccc(OC)c([N+](=O)[O-])c2)cc1[N+](=O)[O-],i
C[C@@H]1CC[C@@]2(O[C@@H](CCO)C[C@@H](O)[C@@H]2O)O1,i
COc1ccc(C(=O)O)cc1S(=O)(=O)NCc1ccccn1,i
O=C(c1cccn2c(=O)c3cc4ccccc4cc3nc12)N1CCN(c2ccccc2)CC1,i
Fc1ccc(-c2csc(N3CCSCC3)n2)cc1,i
Cc1cccc(OCC(=O)Nc2ccc(C(=O)NCc3cccnc3)cc2)c1,i
CCNC(=O)CN(c1ccc(F)cc1)S(=O)(=O)c1ccc2c(c1)OCCO2,i
COc1ccccc1N1CCN(C2CCN(C3CCC(c4ccccc4)CC3)CC2)CC1 (stereo not given),i
CC(C(=O)O)c1ccc(CC2CCCC2=O)cc1 (stereo not given),i
Cc1ccc(NC(=O)CN2C(=O)N/C(=C/c3ccc(N4CCOCC4)cc3)C2=O)cc1,i
COc1ccc2c(=O)c3c(=O)n(-c4ccccc4)c(-c4ccco4)nc3oc2c1,i
COc1ccc(/C=C2\NC(=S)N(CC3CCCO3)C2=O)c(OC)c1C (stereo not given),i
CC(NCC1(N2CCOCC2)CCCCC1)C(=O)Nc1ccc(Cl)cc1Cl (stereo not given),i
N#Cc1ccccc1NC(=O)COC(=O)c1ccc(S(=O)(=O)N2CCCC2)cc1,i
CCOC(=O)C1=c2/c(=C/c3ccncc3)c(N)c(C(=O)OC)n2C(=O)C(c2ccncc2)S1 (stereo not given),i
O=C(CN1CCN(S(=O)(=O)N2CCCCC2)CC1)Nc1cc(Cl)ccc1Cl,i
CC(C)(C)OC(=O)n1cc(/C=N/NC(=O)c2ccco2)c2ccccc21,i
O=CN(/C=C1\Sc2ccccc2C1=O)Cc1ccccc1,i
COc1ccc(S(=O)(=O)NC(CC(=O)N2CCc3ccccc32)c2ccco2)cc1 (stereo not given),i
COc1ccc(S(N)(=O)=O)cc1C(=O)NCC1(N2CCCCC2)CCCCC1,i
COc1cccc(N2CCN(CC(=O)NC(=O)NCc3ccco3)CC2)c1,i
COC(=O)N/N=C/c1cn(Cc2ccc(Cl)cc2Cl)c2ccccc12,i
COc1cc(CC(=O)Nc2ccc3nc(SC)sc3c2)cc(OC)c1OC,i
Cc1ccc2cc(CN(CCN3CCCC3)C(=O)Nc3ccc(F)cc3)c(=O)[nH]c2c1C,i
Cc1cc(C(=O)N/N=C/C=C/c2cccc([N+](=O)[O-])c2)n[nH]1,i
O=C(Nc1ccc([N+](=O)[O-])cc1)c1nc[nH]c1C(=O)NC1CCCCC1,i
CC(=O)N(NC(N)=O)C(C)CC(=O)C1C(C)C=CCC1(C)C (stereo not given),i
Cc1ccccc1Cn1c2ccccc2c2cnn(CC(=O)NCc3ccccn3)c(=O)c21,i
COc1cccc(NS(=O)(=O)c2ccc3c(c2)NC(=O)C(C)S3)c1 (stereo not given),i
CN(CC(O)COCc1cccs1)C1CCCCC1 (stereo not given),i
O=C(CSc1nc2ccccc2nc1N1CCOCC1)Nc1ccccc1F,i
CN1CCCN(Cc2ccc(Cl)cc2Cl)CC1,i
CC(C)(C)c1ccc(OCC(=O)NNC(=O)C2CCCO2)cc1 (stereo not given),i
CCOCCCNC(=O)C(NC(=O)c1ccc2c(c1)OCO2)c1ccccc1 (stereo not given),i

# Next records
SMILES,CHT block
Cc1c(C(=O)C(=O)N2CCN(Cc3ccc4c(c3)OCO4)CC2)c2ccccc2n1C,i
O=C(NCCC1CCCCN1S(=O)(=O)c1ccccc1)C(=O)NCC1CCCO1 (stereo not given),i
CCOc1cc(C2NC(=O)NC(C)=C2C(=O)OCc2ccccc2)ccc1O (stereo not given),i
Cc1c(O)c(S(=O)(=O)c2ccccc2)c(=O)n(-c2ccccc2)c1-c1ccccc1,i
COc1ccc(S(=O)(=O)NNC(=O)C2Cc3c(ccc4ccccc34)O2)cc1 (stereo not given),i
N#Cc1ccc(C2N=C(c3ccccc3)NO2)cc1 (stereo not given),i
CN(CCOc1ccc(Cl)cc1)C(=O)CN1C(=O)NC2(CCCC2)C1=O,i
CC(C)(C)c1nc2ccc([N+](=O)[O-])cc2[nH]1,i
Cc1ccc(CNC(=O)[C@@H]2CCC(=O)N2Cc2ccco2)cc1,i
Cc1ccc(OC(=O)C(F)(F)F)c2c1NCCC2,i
COc1ccc(C(=O)N/C(=C/c2cccnc2)C(=O)NCc2ccco2)cc1OC,i
O=C(NCc1ccccc1)C1CCN(S(=O)(=O)N2CCOCC2)CC1,i
O=C(O)c1cccc(Oc2ccccc2[N+](=O)[O-])c1,i
CCOC(=O)NC(=O)CSc1nnc(SCCC(=O)O)s1,i
CC(Sc1ccc2c(c1)OCCO2)C(=O)Nc1ccc2c(c1)OCO2 (stereo not given),i
CNS(=O)(=O)c1cccc(C(=O)OCCCOC(=O)c2cccc(S(=O)(=O)NC)c2)c1,i
CC(C)N(C(=O)NC(=O)Nc1ccccn1)S(C)(=O)=O,i
COc1ccccc1N1C(=O)C2C(C(=O)c3ccccc3)=NN(c3ccc(Br)cc3)C2C1=O (stereo not given),i
CC(=O)c1cccc(NC(=O)CCNS(=O)(=O)c2cccc(C(C)=O)c2)c1,i
Cc1c(/C=N/NC(N)=O)c2ccccn2c1C(=O)c1ccncc1,i

# Three neighbouring records out of the list so far, for reference:
SMILES,CHT block
CC(C)N(C(=O)NC(=O)Nc1ccccn1)S(C)(=O)=O,i
COc1ccccc1N1C(=O)C2C(C(=O)c3ccccc3)=NN(c3ccc(Br)cc3)C2C1=O (stereo not given),i
CC(=O)c1cccc(NC(=O)CCNS(=O)(=O)c2cccc(C(C)=O)c2)c1,i

# The listing continues:
SMILES,CHT block
CC(c1ccccc1)C1CC(=O)N(Cc2ccccc2)C1=O (stereo not given),i
COc1ccc(N(C)S(=O)(=O)c2cccc(C(=O)Nc3nc4ccccc4[nH]3)c2)cc1,i
CCn1c(SCC(=O)NCCc2ccc(F)cc2)nnc1-c1cccs1,i
CCOC(=O)CSc1nc2cc3c(cc2cc1C#N)OCCO3,i
CN1/C(=C/C(=S)NC(=O)C2(C)CC2(Cl)Cl)C(C)(C)c2ccccc21 (stereo not given),i
CC(C)Oc1snc(Cl)c1C(N)=O,i
COC(=O)c1sc(N)c(C(=O)OC)c1COC(=O)CNS(=O)(=O)c1cccc(C#N)c1,i
Cc1ccc(C(=O)N/C(=C\c2ccccc2)C(=O)NCc2ccncc2)cc1,i
CN(Cc1cc(=O)n2ccsc2n1)Cc1nc2ccccc2c(=O)[nH]1,i
Cc1c(C)c2ccc(OCC(=O)N3CCC(C(=O)O)CC3)c(C)c2oc1=O,i
O=C1CN(C(=O)CSc2nc(-c3ccc(Cl)cc3)cs2)c2ccccc2N1,i
O=C(COc1ccc(S(=O)(=O)N2CCCCC2)cc1)NC1CCCCC1,i
Cc1ccc2c(c1)N(C(=O)CCC(=O)NC1CCC(C)CC1)CCO2 (stereo not given),i
COc1ccc(NC(=O)CSc2nnc(N)n2CC(=O)Nc2ccc(OC)cc2)cc1,i
COc1cc(NC(=O)CCc2c(C)nc3nc(C)nn3c2C)cc(OC)c1,i
O=C(COc1ccc(Cl)cc1Cl)NN1C(=O)C2C3C=CC([C@@H]2C1=O)C31CC1 (stereo not given in full),i
CCN(CC)C(=O)CSc1nc2ccccc2n1CC(=O)N1CCN(c2ccccc2OC)CC1,i
Cc1cc2oc(C(=O)N(Cc3ccc(N(C)C)cc3)CC3CCCO3)c(C)c2cc1C (stereo not given),i
CC(=O)c1cccc(-n2nnnc2SCC(=O)Nc2cc(C)on2)c1,i
CCCOc1cccc(C(=O)Nc2ccc(Br)cc2F)c1,i
Cc1cc(=O)oc(C)c1C(=O)NCc1ccccc1,i
COc1ccccc1NC(=S)NCCc1ccc(Cl)cc1,i
O=C(NCCc1ccccn1)c1cc(-c2cccc3ccccc23)nc2ccccc12,i
COc1cccc(OCc2cc(C(=O)NCc3ccccn3)no2)c1,i
COc1ccc(C(=O)N/N=C2\SCC(=O)N2Cc2ccc3c(c2)OCO3)c(OC)c1,i
CC(C)CCn1c(=O)c(C(=O)N/N=C/c2cccc(F)c2)c(O)c2ccccc21,i
CCOc1ccc(NC(=O)COC(=O)Cc2ccc(S(=O)(=O)N3CCOCC3)s2)cc1,i
CC(NC(=O)NC(=O)c1ccc(Cl)cc1)c1ccccc1 (stereo not given),i
CC1CC(C)CN(C(=O)c2ccc(CSc3nc4ccncc4[nH]3)cc2)C1 (stereo not given),i
CC(=O)C1=C(C)NC(=O)NC1c1cccs1 (stereo not given),i
O=C(NC(=S)NCC1CCCO1)c1ccc(Cl)cc1 (stereo not given),i
Cc1cccc(C)c1NC(=O)COC(=O)c1ccc2c(c1)OCO2,i
CC1=C(CC(=O)O)c2cc(F)ccc2/C1=C/c1ccc(S(C)=O)cc1 (stereo not given),i
Cc1ccc(NC(=O)CC(=O)c2ccc([N+](=O)[O-])cc2)cc1S(=O)(=O)Nc1cccc(Cl)c1,i
O=C(Nc1nnc(CCN2CCCCC2)s1)c1cccc(Cl)c1,i
O=C(CCN1C(=O)c2ccccc2S1(=O)=O)N1CCN(c2ccc(F)cc2)CC1,i
Cc1occc1C(=O)NNC(=O)c1nn(C)c(=O)c2ccccc12,i
CC(=O)N(CCc1ccccc1)Cc1cc2cc(C)ccc2[nH]c1=O,i
C/C(=N\NC(=O)COc1ccc(C#N)cc1)c1ccc(N2CCOCC2)cc1,i
C[C@]12CC[C@@H]3c4ccc(O)cc4CC[C@H]3[C@@H]1C[C@@H](O)[C@@H]2O,i
CC1CCCC(C)N1C(=O)COC(=O)Cn1cnc2c1c(=O)n(C)c(=O)n2C (stereo not given),i
Cc1ccc(C)c(C(C)NC(=O)C2CCCO2)c1 (stereo not given),i
C/C(=N/OCC(=O)NCCCCCCNC(=O)CO/N=C(/C)c1cccs1)c1cccs1,i
COc1cccc(OCC(O)CN2CCN(C)CC2)c1 (stereo not given),i
CCOc1ccc(OCCn2ccnc2)cc1,i
Cn1c(=O)[nH]c(=O)c2c1nc(SCC(O)CO)n2CCCc1ccccc1 (stereo not given),i
Cc1nc(NC(=O)C2CCCCC2)sc1C,i
Cc1ccc(S(=O)(=O)N(C)C)cc1NC(=O)C(C)OC(=O)/C=C/c1cccs1 (stereo not given),i
COc1cc(C(=O)NC2CCN(Cc3nnnn3Cc3cccs3)CC2)cc(OC)c1OC,i
O=C(CNC(=O)c1ccc(Br)o1)NCc1cccc(Cl)c1,i

# Grouped by structure, those above with an aryl thioether with sulfur outside any ring.
SMILES,CHT block
Clc1ccc(CSc2cc3c(nn2)-c2ccccc2CC3)cc1,i
COc1ccc(-c2nnc(SC)nc2-c2ccc(OC)c([N+](=O)[O-])c2)cc1[N+](=O)[O-],i
COc1cc(CC(=O)Nc2ccc3nc(SC)sc3c2)cc(OC)c1OC,i
O=C(CSc1nc2ccccc2nc1N1CCOCC1)Nc1ccccc1F,i
CCOC(=O)NC(=O)CSc1nnc(SCCC(=O)O)s1,i
CC(Sc1ccc2c(c1)OCCO2)C(=O)Nc1ccc2c(c1)OCO2 (stereo not given),i
CCn1c(SCC(=O)NCCc2ccc(F)cc2)nnc1-c1cccs1,i
CCOC(=O)CSc1nc2cc3c(cc2cc1C#N)OCCO3,i
O=C1CN(C(=O)CSc2nc(-c3ccc(Cl)cc3)cs2)c2ccccc2N1,i
COc1ccc(NC(=O)CSc2nnc(N)n2CC(=O)Nc2ccc(OC)cc2)cc1,i
CCN(CC)C(=O)CSc1nc2ccccc2n1CC(=O)N1CCN(c2ccccc2OC)CC1,i
CC(=O)c1cccc(-n2nnnc2SCC(=O)Nc2cc(C)on2)c1,i
CC1CC(C)CN(C(=O)c2ccc(CSc3nc4ccncc4[nH]3)cc2)C1 (stereo not given),i
Cn1c(=O)[nH]c(=O)c2c1nc(SCC(O)CO)n2CCCc1ccccc1 (stereo not given),i

# Some of the compounds tested; most or all hits stand in other tables.
